HCMV NEC inh = inhibitors of HCMV UL50-UL53 nuclear egress complex interaction | HTRF UL50-UL53 interaction, normalized percent inhibition | inhibition, % (concentration not given with the values) | actives 0.15% (n = 190,000);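 active = both replicates at 50% or more, plus weaker picks with an unusually low signal ratio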;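 also: stock transfer was 100 nL into about 20 µL; 0% = negative control wells and 100% = wells with untagged competitor protein; inactives centre near -12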
GIV-Gai inh = GIV-Galpha-i interaction inhibition | P08753 | Galpha-i3/FITC-GIV peptide fluorescence polarization, 90 min; active compounds read low; scaled: aluminum fluoride 0%, vehicle 100% | percent of control (FP), % (concentration not given with the values) | actives 0.42% (n = 210,000) | AID 1224905;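 active = replicate mean at 85% of control or lower, very high polarization wells dropped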;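 also: wells of about 15 µL received 100 nL stock; the first replicate is given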
Target sequence (P08753 whole entry, looked up): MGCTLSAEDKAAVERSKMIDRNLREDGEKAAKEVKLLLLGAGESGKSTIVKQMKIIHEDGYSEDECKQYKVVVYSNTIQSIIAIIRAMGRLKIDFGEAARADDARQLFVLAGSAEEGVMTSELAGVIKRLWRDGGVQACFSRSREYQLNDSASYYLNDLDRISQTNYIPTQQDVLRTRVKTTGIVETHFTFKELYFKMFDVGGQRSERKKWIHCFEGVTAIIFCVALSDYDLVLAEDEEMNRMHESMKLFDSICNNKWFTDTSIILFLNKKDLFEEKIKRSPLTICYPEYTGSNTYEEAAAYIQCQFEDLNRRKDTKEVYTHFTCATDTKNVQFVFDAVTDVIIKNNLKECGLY
Sa growth inh = blocks Staphylococcus aureus growth; relative growth, % (no concentration beside the values); AID 720641; actives 0.53% (n = 170,000); S. aureus RN4220 growth, OD600, 20 h, 42 °C; active compounds read low;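 active = growth at 42 °C up to 50% and 20 or more points under that at 30 °C, or under 10% at both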;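 also: 300 nL library stock went into each well; scaled to the means of positive and negative controls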
Sa growth inh second temp = further read-out of Sa growth inh, marked with its call; relative growth, %; measured here: growth at 30 °C;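 optical density after 20 h as mean of two plates; 100% = untreated growth and lower means inhibition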
* = called active by the depositor; x = no result given.

Screens by letter – A = HCMV NEC inh; B = GIV-Gai inh; C = Sa growth inh; D = Sa growth inh second temp
#1 CCOC(=O)c1c(C)[nH]c(C)c1S(=O)(=O)NCC(=O)Nc1cccc(C#N)c1
  A: x	B: 106	C: 98	D: 98

#2 CCC1=C[C@@H]2CN(C1)Cc1c([nH]c3ccccc13)[C@@](C(=O)OC)(c1cc3c(cc1OC)N(C)[C@H]1[C@@](O)(C(=O)OC)[C@H](OC(C)=O)[C@]4(CC)C=CCN5CC[C@]31[C@@H]54)C2
  A: -23	B: 101	C: 90	D: 90

#3 Cc1cccc(CN2C(=O)c3ccccc3S(=O)(=O)c3ccc(C(=O)OCC4CCCO4)cc32)c1 (stereo unspecified)
  A: x	B: 101	C: 106	D: 88

#4 CCC(CC)C(=O)Nc1cc(-c2cccc(C)c2)nn1-c1ccccc1
  A: x	B: 102	C: 87	D: 91

#5 CCCCn1c(COc2ccc(OC)cc2)nc2cc(S(=O)(=O)N3CCOCC3)ccc21
  A: -2	B: x	C: 106	D: 101

#6 CN(C)S(=O)(=O)c1ccc(C(=O)N2CCN(Cc3nc4sc5c(c4c(=O)[nH]3)CCCC5)CC2)cc1
  A: -16	B: x	C: 89	D: 91

#7 COc1ccc(S(=O)(=O)N2CCN(Cc3nc4ccc(C)cc4o3)CC2)cc1Cl
  A: x	B: 111	C: 120	D: 102

#8 COc1ccc(OC)c(Nc2nc3cc(C)ccc3cc2C)c1
  A: -11	B: 103	C: 107	D: 84

#9 Cc1ccccc1CNC(=O)CSc1nnc(C)c2c(C)n(-c3ccccc3)nc12
  A: x	B: 111	C: 111	D: 101

#10 COc1ccc(Cn2c(=O)c3ccccc3n3c(-c4ccc(C)cc4)nnc23)cc1
  A: -7	B: 98	C: 105	D: 91

#11 COC(=O)c1sccc1NC(=O)C1CC(C)=C(C)CC1C(=O)O (stereo unspecified)
  A: -4	B: 102	C: 155	D: 97

#12 Cc1nn(S(=O)(=O)N2CCOCC2)c(C)c1Cl
  A: -1	B: 96	C: 102	D: 99

#13 Cc1c(-c2nc(-c3ccc4c(c3)OCO4)no2)nnn1-c1ccc(C(C)C)cc1
  A: x	B: 108	C: 120	D: 91

#14 COc1ccc(CCN=Cc2ccc(Oc3nccc(C(F)(F)F)n3)cc2)cc1OC
  A: -5	B: 103	C: 90	D: 89

#15 COCc1cc(C)nc2sc3c(c12)NC(c1ccc(O)cc1)N(c1ccc(OC)cc1)C3=O (stereo unspecified)
  A: -36	B: 101	C: 114	D: 82

#16 CCOC(=O)c1ccc(NC2CCCc3c2n(C)c2ccc(C)cc32)cc1 (stereo unspecified)
  A: x	B: 104	C: 94	D: 99

#17 COc1ccc(CC(=O)Nc2sccc2C#N)cc1
  A: -25	B: x	C: 129	D: 87

#18 Cc1cc2nnc(SCCC(=O)O)n2c2ccccc12
  A: -29	B: 100	C: 107	D: 100

#19 O=C(COC(=O)[C@@H]1CCCN1C(=O)c1cccs1)Nc1ccccc1
  A: 5	B: x	C: 104	D: 93

#20 COc1ccc(C(=O)Nc2nc3c(s2)Cc2cc(OC)ccc2-3)cc1
  A: 2	B: 104	C: 98	D: 74

#21 Cn1c(-c2ccccn2)[n+](C)c2ccccc21
  A: 24	B: x	C: 82	D: 96

#22 CS(=O)(=O)Nc1ccc2c(c1)C(=O)NC2=O
  A: x	B: 98	C: 112	D: 77

#23 CCOc1ccccc1CNC(=O)c1ccc2c(c1)N(CC)CCS2
  A: -7	B: 102	C: 105	D: 89

#24 O=C1/C(=C/c2c(N3CCN(CCO)CC3)nc3ccccn3c2=O)SC(=S)N1C1CCCCC1
  A: -22	B: 173	C: x	D: x

#25 O=C(c1nc(-c2ccccc2)n(-c2ccccc2Cl)n1)N1CCCC1
  A: 3	B: 99	C: x	D: x

#26 Cn1c(=O)cc(SCC(=O)NCCN2CCN(c3cccc(Cl)c3)CC2)c2ccccc21
  A: -29	B: 103	C: 79	D: 61

#27 CCCc1cc(NCCc2ccccc2)n2c(nc3ccccc32)c1C#N
  A: x	B: 97	C: 131	D: 89

#28 CN1CCc2c(sc3nc(=S)[nH]c(N)c23)C1
  A: -45	B: 103	C: 106	D: 62

#29 Cc1cc(C)c(/C=C/c2onc(C)c2S(=O)(=O)N2CCCC(C(=O)Nc3nccs3)C2)c(C)c1 (stereo unspecified)
  A: -16	B: 105	C: x	D: x

#30 CC(=O)Nc1cccc(-c2nnco2)c1
  A: -4	B: 100	C: 95	D: 99

#31 O=C(NCC1CCCO1)c1c(-c2ccc(F)cc2)nc2n1CCS2(=O)=O (stereo unspecified)
  A: -21	B: 100	C: x	D: x

#32 CN(C)S(=O)(=O)c1ccc(Cl)c(C(=O)OCC(=O)C(C)(C)C)c1
  A: -18	B: x	C: 85	D: 97

#33 CC1CCC(C(C)C)C(NC(=S)Nc2cccc(F)c2)C1 (stereo unspecified)
  A: -18	B: 100	C: -0.8*	D: -0.6*

#34 O=C(O)CCCSc1nc2ccccc2[nH]1
  A: -28	B: x	C: 114	D: 92

#35 N#Cc1ccccc1CO/N=C/c1ccc(N2CCOCC2)cc1
  A: -23	B: x	C: 109	D: 101

#36 COc1cc(C(=O)N=C2C(C)=CC(=O)C=C2C)cc(OC)c1OC
  A: x	B: 101	C: -0.6*	D: -0.6*

#37 CCC(C)OC(=O)C1=C(C)NC2=C(C(=O)CC(c3ccc(OC)cc3)C2)C1c1ccc(OC(C)=O)cc1 (stereo unspecified)
  A: -3	B: 103	C: x	D: x

#38 Cc1ccccc1-c1nnc(CN2CCN(c3cccc(C)c3C)CC2)o1
  A: -6	B: 101	C: 105	D: 98

#39 O=C(/C=C/c1c(Cl)nc2ccccn12)OCC1CCCO1 (stereo unspecified)
  A: -75	B: x	C: 97	D: 94

#40 CCN1C(=O)/C(=C/c2ccc3c(c2)OCO3)OC1=S
  A: -21	B: 107	C: 115	D: 93

#41 Cc1ccc(-n2nnc3c(sc4nc(C)cc(C)c43)c2=O)cc1
  A: x	B: 97	C: 82	D: 87

#42 CCCCN(C)CCCNC(=O)Cn1nc(CC)n2c(cc3sc(C)cc32)c1=O
  A: -2	B: 105	C: 95	D: 87

#43 O=C(NCc1ccncc1)c1ccc(-n2cccn2)cc1
  A: -10	B: 102	C: 90	D: 84

#44 O=C1NCC(O)=C1/C=N/Nc1ccccc1
  A: -54	B: 93	C: 86	D: 64

#45 CC(=O)Nc1ccc(/C=C2/C(=O)N=C(N)N2C)cc1
  A: -79	B: 96	C: 80	D: 93

#46 CCOC(=O)C1C(=O)C=C(N2CCOCC2)CC1c1cccc(OC)c1 (stereo unspecified)
  A: -8	B: x	C: 97	D: 84

#47 Cc1cc(=O)[nH]c(O)c1C(=O)O
  A: 65*	B: 93	C: 108	D: 94

#48 OCCOCCNCc1ccc(-c2ccccc2F)o1
  A: -16	B: 107	C: x	D: x

#49 CCOc1ccc(-c2cc(NC(=O)Cn3ncc4c3-c3ccccc3OC4)on2)cc1OCC
  A: -18	B: 96	C: x	D: x

#50 Cc1ccc2nc(Cc3ccc(N)cc3)oc2c1
  A: -21	B: 102	C: 108	D: 96

Part of the list above, reformatted:
21: Cn1c(-c2ccccn2)[n+](C)c2ccccc21
  HCMV NEC inh: 24	GIV-Gai inh: x	Sa growth inh: 82	Sa growth inh second temp: 96

29: Cc1cc(C)c(/C=C/c2onc(C)c2S(=O)(=O)N2CCCC(C(=O)Nc3nccs3)C2)c(C)c1 (stereo unspecified)
  HCMV NEC inh: -16	GIV-Gai inh: 105	Sa growth inh: x	Sa growth inh second temp: x

(cont.)
Screens by letter – A = HCMV NEC inh; B = GIV-Gai inh; C = Sa growth inh; D = Sa growth inh second temp
#51 CN(C1CCCCC1)S(=O)(=O)c1ccc(CNC(=O)c2ccccc2)s1
  A: -28	B: 99	C: 86	D: 80

#52 COc1ccc(CCN=C2SCCN2C(=O)c2ccc(C#N)cc2)cc1
  A: -16	B: x	C: 102	D: 87

#53 CCC(C)NC(=O)CCSc1nc(-c2ccc(OC)cc2)cc(C(F)(F)F)n1 (stereo unspecified)
  A: -2	B: 101	C: 104	D: 104

#54 CCCN1CCN(c2ncc3c(n2)CCNC3)CC1
  A: -11	B: 104	C: x	D: x

#55 COc1ccc(Cn2c3nc(C#N)c(C#N)nc3c3c(=O)[nH]c(C)nc32)cc1
  A: 11	B: x	C: 87	D: 95

#56 CC(=O)N/C(=C\c1cccs1)C(=O)O
  A: x	B: 101	C: 89	D: 90

#57 O=C(Nc1ccccc1SCCS(=O)(=O)c1ccc(Cl)cc1)c1ccccc1Cl
  A: -42	B: 106	C: 82	D: 87

#58 O=C(NC1CC1)C1C2C=CC3(CN(Cc4ccccc4Cl)C(=O)C13)O2 (stereo unspecified)
  A: x	B: 99	C: 111	D: 89

#59 O=C(Cc1ccc(F)cc1)NCCc1csc(-c2ccc(C(F)(F)F)cc2)n1
  A: x	B: 98	C: 127	D: 93

#60 CCOc1ccccc1NC(=O)c1c(NC(=O)COc2ccc(Cl)cc2)sc2c1CCCCC2
  A: -28	B: 103	C: 97	D: 89

#61 CC(C)CN(CC(C)C)S(=O)(=O)c1ccc(C(=O)Nc2nnc(-c3cccs3)o2)cc1
  A: x	B: 97	C: 28	D: 20

#62 Cc1c(C(=O)Nc2nc(-c3ccc(F)cc3)ns2)oc2ccc(Br)cc12
  A: -31	B: 99	C: 101	D: 89

#63 CSc1ccc(CCNC(=O)C2CCN(c3ncnc4c3nc3n4CCCCC3)CC2)cc1
  A: x	B: 106	C: 106	D: 89

#64 CCCCn1c(SCC(=O)NC2CCCC2)nc2c(sc3ccccc32)c1=O
  A: x	B: 104	C: 84	D: 94

#65 Cc1ccsc1Cn1nccc1NC(=O)C1CC(=O)N(c2ccc3c(c2)OCCO3)C1 (stereo unspecified)
  A: -12	B: x	C: 93	D: 90

#66 Cc1cc(C)c(Cn2c3ccccc3c3cnn(CC(=O)N4CCCCC4)c(=O)c32)c(C)c1
  A: 2	B: 103	C: 94	D: 86

#67 CSc1ccccc1C(=O)NCC(C)C
  A: 1	B: 107	C: 104	D: 104

#68 O=C(NC1CCCC1)c1cc2ccc3cccnc3c2[nH]1
  A: -12	B: 102	C: x	D: x

#69 N#C/C(=C\NC1CCN(Cc2ccccc2)CC1)S(=O)(=O)c1ccc(Cl)cc1
  A: -1	B: 102	C: 134	D: 89

#70 CCOC(=O)C1(C)C=C(Nc2ccc(O)c(C(=O)O)c2)C(=O)N1c1ccccc1 (stereo unspecified)
  A: 11	B: 102	C: x	D: x

#71 O=C(NCc1ccco1)C(c1ccccc1)N(CCc1ccccc1)C(=O)Cn1nnc2ccccc21 (stereo unspecified)
  A: -1	B: 104	C: 77	D: 88

#72 CCOc1ccccc1NC(=O)C(CC)Sc1nc2ccccc2c(=O)n1C1CC1 (stereo unspecified)
  A: -5	B: 103	C: 95	D: 82

#73 CC(=O)N1c2ccc(S(=O)(=O)NCC3CCC(C(=O)NCCC(C)C)CC3)cc2CC1C (stereo unspecified)
  A: x	B: 108	C: 109	D: 108

#74 Cc1cc(=O)[nH]c(SCC(=O)c2ccc3c(c2)NC(=O)CO3)n1
  A: -23	B: x	C: 86	D: 84

#75 CC(C)N1CCN(C(=O)c2ccco2)CC1
  A: -7	B: x	C: 98	D: 79

In another format: entries from further up.
63) CSc1ccc(CCNC(=O)C2CCN(c3ncnc4c3nc3n4CCCCC3)CC2)cc1
71) O=C(NCc1ccco1)C(c1ccccc1)N(CCc1ccccc1)C(=O)Cn1nnc2ccccc21 (stereo unspecified)
54) CCCN1CCN(c2ncc3c(n2)CCNC3)CC1
72) CCOc1ccccc1NC(=O)C(CC)Sc1nc2ccccc2c(=O)n1C1CC1 (stereo unspecified)
70) CCOC(=O)C1(C)C=C(Nc2ccc(O)c(C(=O)O)c2)C(=O)N1c1ccccc1 (stereo unspecified)
Assay by compound	63	71	54	72	70
HCMV NEC inh	x	-1	-11	-5	11
GIV-Gai inh	106	104	104	103	102
Sa growth inh	106	77	x	95	x
Sa growth inh second temp	89	88	x	82	x

Next part.
Screens by letter – A = HCMV NEC inh; B = GIV-Gai inh; C = Sa growth inh; D = Sa growth inh second temp
#76 COc1ccccc1OCCSc1nc2ccccc2o1
  A: -8	B: x	C: 100	D: 86

#77 Cc1ccc(CNC(=O)c2oc3ccc(C)cc3c2C)cc1
  A: -40	B: 106	C: 92	D: 94

#78 CC(OC(=O)c1cccc(Cl)c1)c1ccc[n+](C)c1 (stereo unspecified)
  A: -2	B: 101	C: 96	D: 85

#79 Cc1ccc2nc(SC(C)C(=O)O)[nH]c2c1 (stereo unspecified)
  A: -3	B: 102	C: 118	D: 100

#80 COc1cc(C)nc(NC(=O)Nc2cccc(Cl)c2)n1
  A: -5	B: 106	C: 91	D: 93

#81 CCOC(=O)/C=C1\SCC(=O)N1CC(O)c1ccccc1 (stereo unspecified)
  A: -1	B: x	C: 100	D: 99

#82 COc1ccc(CC(=O)Nc2ccc3[nH]c(=O)oc3c2)cc1
  A: -17	B: 106	C: x	D: x

#83 CCOc1ccc(-c2noc(CCC(=O)Nc3ccncc3)n2)cc1OCC
  A: -16	B: 100	C: x	D: x

#84 COc1ccccc1C1CC(=O)Nc2sc3c(C)c(C#N)c(N)nc3c21 (stereo unspecified)
  A: 20	B: 107	C: 76	D: 91

#85 O=C(CC1SC(=O)NC1=O)Nc1ccc(F)cc1 (stereo unspecified)
  A: -11	B: 107	C: 85	D: 79

#86 Cc1c(C(=O)Nc2cc(Cl)ccc2-n2cncn2)[nH]c2c1C(=O)CC(C)(C)C2
  A: 7	B: x	C: 100	D: 92

#87 COc1ccc(OC)c(CNC(=O)c2cnc3c(C)cccn3c2=O)c1
  A: x	B: 100	C: 105	D: 88

Source: PubChem
